Bioassay records from PubChem.
rRNA inh HTS: reduced GFP signal of wild-type E. coli, primary screen, bacterial rRNA inhibitor project, GFP/RFP fluorescence, OD600, single point. E. coli WT GFP vs humanized-ribosome RFP mutants, 24 h; stronger effect = lower value; DMSO median 0, no signal -100. GFP signal change (wild-type ribosome), % (no concentration beside the values). hit rate 1.6% among 350,000. AID 720706, 2013;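 active = significant combined selectivity score with lowered wild-type GFP, culture density cut under 30%, mutant RFP and density less affected; inactive = any of these conditions unmet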; note: one replicate is shown; some compounds called inactive have numbers as strong as hits
rRNA inh HTS OD600: further read-out of rRNA inh HTS, marked with its call; OD600 change, %; measured here: OD600 growth;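 optical density of the mix in the first replicate; 0 = DMSO median and -100 = no signal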
rRNA inh HTS RFP: also measured in rRNA inh HTS; calls as there; RFP signal change, %; measured here: RFP humanized mutant strains;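 first replicate; 0 = DMSO median and -100 = no signal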
The depositor's hits bear a star; & = joins results of further samples. An excerpt; count on the stated rates, not on these rows.

SMILES	rRNA inh HTS	rRNA inh HTS OD600	rRNA inh HTS RFP
Cc1cc(C(=O)Nc2cccc3c2O[C@H](CN(C)CC2CC2)[C@H](C)CN([C@H](C)CO)C3=O)n(C)n1	2	0	-0.7
Cc1cccc(S(=O)(=O)N2C[C@H](O)COC[C@H]3O[C@@H](CC(=O)NCc4ccc5c(c4)OCO5)CC[C@@H]32)c1	-5	-8	-5.9
CN(C)CC(=O)N1[C@H](C#N)[C@H](c2ccc(C#CC3CCCCC3)cc2)[C@H]1CO	-2	-30	-1.4
O=C(Cc1cccnc1)N1[C@H](CO)[C@@H]2c3ccccc3NC[C@@H]21	5	22	-2.7
O=C(Nc1ccc(Cl)c(Cl)c1)N[C@@H]1CC[C@@H](CCNC(=O)c2ccc(F)cc2)O[C@@H]1CO	-3	-3	4.1
CC1=C(C(=O)N2CCCCCC2)CC(CC(=O)NCCc2ccccn2)C(=O)N1Cc1ccccc1 (stereo unspecified)	9	7	-1.7
CC(C)CC#Cc1cnc2c(c1)C(=O)N([C@H](C)CO)C[C@@H](C)[C@@H](CN(C)C(=O)c1ccccc1F)O2	2	3	-0.4
C[C@H]1CN([C@@H](C)CO)C(=O)Cc2cc(NC(=O)C3CCCCC3)ccc2O[C@H]1CN(C)S(=O)(=O)c1ccc(Cl)cc1	3	-8	1.6
COc1cccc(NC(=O)N(C)C[C@H]2Oc3cc(-c4ccccc4F)ccc3S(=O)(=O)N([C@H](C)CO)C[C@H]2C)c1	0	-4	0.2
COc1cccc(-c2ccc3c(c2)O[C@@H](CN(C)Cc2cncnc2)[C@H](C)CN([C@@H](C)CO)S3(=O)=O)c1	-4	-10	2.7
C[C@H]1CN([C@@H](C)CO)C(=O)Cc2cc(NC(=O)CCN3CCOCC3)ccc2O[C@@H]1CN(C)S(=O)(=O)c1cccs1	-1	1	-1.8
CN(C)C(=O)c1cccc(-c2ccc3c(c2)[C@@H]2[C@@H](CCN2C(=O)c2cccnc2)[C@@H](CO)N3)c1	-2	-1	-5.3
C[C@H]1CN([C@@H](C)CO)C(=O)Cc2cc(NC(=O)Nc3ccccc3)ccc2O[C@H]1CN(C)C(=O)Nc1ccc(F)cc1	5	0	2.3
Cc1noc(C)c1S(=O)(=O)N(C)C[C@H]1OCCCC[C@H](C)Oc2ccc(NS(=O)(=O)c3ccccc3)cc2C(=O)N([C@H](C)CO)C[C@@H]1C	-1	-6	2.3
C[C@@H]1CN([C@H](C)CO)S(=O)(=O)c2ccc(C#CC3CC3)cc2O[C@@H]1CN(C)Cc1cncnc1	0	-5	4.7
C[C@@H]1CN([C@H](C)CO)C(=O)c2cc(C#C[C@@H](C)O)cnc2O[C@H]1CN(C)C(=O)Nc1ccc(F)cc1	2	6	-0.7
CCS(=O)(=O)N1CCCCN2[C@H](CO)[C@H](c3ccc(-c4cccc(C#N)c4)cc3)[C@@H]2C1	-6	-4	-0.7
Cc1noc(C)c1NC(=O)N(C)C[C@@H]1Oc2ccc(NC(=O)Cc3ccccc3)cc2C(=O)N([C@H](C)CO)C[C@@H]1C	4	11	0.8
C[C@H]1CN([C@@H](C)CO)S(=O)(=O)c2ccc(C#Cc3cccc(F)c3)cc2O[C@@H]1CN(C)S(=O)(=O)c1ccccc1F	0	4	-1.0
COc1ccccc1-c1cccc(-c2nc(C(=O)N3CCCCC3)cc3c2[C@@H](CCO)N([S@](=O)C(C)(C)C)C3)c1	-4	-3	16
CC(C)NC(=O)Nc1cccc2c1O[C@H](CN(C)Cc1ccc(C(F)(F)F)cc1)[C@@H](C)CN([C@@H](C)CO)C2=O	-2	1	-2.6
COc1ccc(NC(=O)Nc2cccc3c2O[C@@H](CN(C)C(=O)Nc2ccc4c(c2)OCO4)[C@@H](C)CN([C@H](C)CO)C3=O)cc1	-1	2	0.2
C[C@@H]1CCCCO[C@@H](CN(C)Cc2ccncc2)[C@H](C)CN([C@@H](C)CO)C(=O)c2cc(NS(=O)(=O)c3ccc(F)cc3)ccc2O1	1	-2	0.3
O=C(Nc1ccc(F)cc1)N1CC(=O)N2[C@H](CO)[C@H](c3ccc(Br)cc3)[C@@H]2C1	-2	-10	-0.2
O=C(CC[C@H]1O[C@@H](n2ccc(=O)[nH]c2=O)[C@H](O)[C@@H]1O)N[C@@H](Cc1ccccc1)C(=O)NCC1CCCCC1	-1	0	3.3
Later entries.
SMILES	rRNA inh HTS	rRNA inh HTS OD600	rRNA inh HTS RFP
Brc1ccc2nc(-c3ccco3)c(Cc3ccsc3)n2c1	6	12	0.8
O=C(C[C@@H]1C[C@@H]2c3cc(NC(=O)Nc4ccc(C(F)(F)F)cc4)ccc3O[C@@H]2[C@@H](CO)O1)NCc1cc(F)ccc1F	-4	3	-4.1
CNC[C@H]1OCCCC[C@@H](C)Oc2ccc(N)cc2C(=O)N([C@@H](C)CO)C[C@@H]1C	6	10	-3.4
CN1C(=O)c2cc(NC(=O)C3CCOCC3)ccc2OC[C@H]2O[C@H](CC(=O)O)CC[C@@H]21	5	5	-3.4
Cc1ccc(S(=O)(=O)Nc2ccc3c(c2)C(=O)N([C@@H](C)CO)C[C@H](C)[C@H](CN(C)C(=O)Nc2c(C)noc2C)O3)cc1	3	9	-0.5
COc1ccc(CN(C)C[C@@H]2OCCCC[C@H](C)Oc3ccc(NC(=O)NC(C)C)cc3C(=O)N([C@@H](C)CO)C[C@H]2C)cc1	-1	-4	0.5
C[C@@H]1CN([C@H](C)CO)C(=O)CCCn2nncc2CO[C@@H]1CN(C)C(=O)c1cc(-c2ccccc2)on1	2&-1	16&-8	-0.5&-0.2
COC(=O)[C@H]1[C@H](CO)[C@H]2Cn3c(ccc(-c4cccc(F)c4)c3=O)[C@H]2N1CC1CC1	-4	-1	-1.3
C[C@@H]1CN([C@H](C)CO)C(=O)c2cccc(NC(=O)C3CCOCC3)c2O[C@H]1CN(C)CC1CC1	3	7	-0.9
Cc1ccc(S(=O)(=O)N(C)c2cccc3c2S(=O)(=O)N([C@H](C)c2ccccc2)C[C@@H](COCc2ccccc2)O3)cc1	12	9	-2.1
C[C@H](CO)N1C[C@H](C)[C@H](CN(C)Cc2ccc3c(c2)OCO3)OCCCC[C@H](C)Oc2ccc(NC(=O)NC3CCCCC3)cc2C1=O	-2	-15	4.8
CCC(=O)N(C)C[C@H]1Oc2cc(/C=C/c3ccccc3)ccc2S(=O)(=O)N([C@@H](C)CO)C[C@@H]1C	-26	-55	25
CO[C@H]1CN(C)C(=O)c2ccc(NC(C)=O)cc2OC[C@H](C)N(Cc2nccs2)C[C@H]1C	-1	-1	-1.2
C[C@H]1CN([C@@H](C)CO)C(=O)c2cccc(NC(=O)Nc3ccc(F)cc3)c2O[C@@H]1CN(C)C(=O)NC1CCCCC1	-1	5	0.3
CN(C[C@@H]1N[C@H](CO)[C@H]1c1ccc(C2=CCCC2)cc1)C(=O)c1cccc(F)c1	-17	-57	27
CCCCCCN1C[C@H](n2cc(C3CC3)nn2)[C@@H](O)C[C@@H]1c1ccccc1	3	2	2.3
C[C@H]1CN([C@@H](C)CO)C(=O)c2cccc(NC(=O)c3ccncc3)c2O[C@@H]1CN(C)Cc1ccncc1	0	1	0.6
CC(=O)c1ccc2c3c(ccc([N+](=O)[O-])c13)CC2	6	2	4.5
COc1ccccc1S(=O)(=O)N1CC[C@@H]2[C@H]1c1cc(-c3ccc(C#N)cc3)ccc1N[C@@H]2CO	-11	-3	2.6
CO[C@H]1CN(C)C(=O)c2ccc(NC(=O)C3CC3)cc2OC[C@H](C)N(C(=O)c2cccnc2)C[C@@H]1C	2	2	0.4
C[C@H](CO)N1C[C@H](C)[C@@H](CN(C)Cc2ccc(C(=O)O)cc2)Oc2c(NC(=O)c3nc4ccccc4s3)cccc2C1=O	-6	-6	1.4
COc1cc(C(=O)N2CCCCC2c2cc(C(=O)NCc3cccnc3)no2)cc(OC)c1C (stereo unspecified)	-6	-13	3.9
CO[C@H]1CN(C)C(=O)c2cc(NS(=O)(=O)c3ccc(C)cc3)ccc2OC[C@@H](C)N(C(=O)NC(C)C)C[C@@H]1C	-1	-4	-2.0
COc1ccc(C#Cc2ccc([C@@H]3[C@@H](CO)N4CCCCN(S(=O)(=O)c5cn(C)cn5)C[C@H]34)cc2)cc1	-59	-70	-14
CS(=O)(=O)Nc1ccc2c(c1)[C@@H]1C[C@@H](CC(=O)NCc3ccccc3F)O[C@@H](CO)[C@@H]1O2	0	-2	-2.2

In a second layout: entries from further up
SMILES,rRNA inh HTS,rRNA inh HTS OD600,rRNA inh HTS RFP
Cc1cc(C(=O)Nc2cccc3c2O[C@H](CN(C)CC2CC2)[C@H](C)CN([C@H](C)CO)C3=O)n(C)n1,2,0,-0.7
Cc1cccc(S(=O)(=O)N2C[C@H](O)COC[C@H]3O[C@@H](CC(=O)NCc4ccc5c(c4)OCO5)CC[C@@H]32)c1,-5,-8,-5.9
CN(C)CC(=O)N1[C@H](C#N)[C@H](c2ccc(C#CC3CCCCC3)cc2)[C@H]1CO,-2,-30,-1.4
O=C(Cc1cccnc1)N1[C@H](CO)[C@@H]2c3ccccc3NC[C@@H]21,5,22,-2.7
O=C(Nc1ccc(Cl)c(Cl)c1)N[C@@H]1CC[C@@H](CCNC(=O)c2ccc(F)cc2)O[C@@H]1CO,-3,-3,4.1
CC1=C(C(=O)N2CCCCCC2)CC(CC(=O)NCCc2ccccn2)C(=O)N1Cc1ccccc1 (stereo unspecified),9,7,-1.7
CC(C)CC#Cc1cnc2c(c1)C(=O)N([C@H](C)CO)C[C@@H](C)[C@@H](CN(C)C(=O)c1ccccc1F)O2,2,3,-0.4
C[C@H]1CN([C@@H](C)CO)C(=O)Cc2cc(NC(=O)C3CCCCC3)ccc2O[C@H]1CN(C)S(=O)(=O)c1ccc(Cl)cc1,3,-8,1.6
COc1cccc(NC(=O)N(C)C[C@H]2Oc3cc(-c4ccccc4F)ccc3S(=O)(=O)N([C@H](C)CO)C[C@H]2C)c1,0,-4,0.2

Later entries:
SMILES	rRNA inh HTS	rRNA inh HTS OD600	rRNA inh HTS RFP
C[C@H]1CN([C@@H](C)CO)C(=O)Cc2cc(NC(=O)CCCCCC(=O)Nc3ccccc3N)ccc2O[C@@H]1CN(C)CC1CCCCC1	1	-3	1.9
O=C(Cc1ccccc1)N1C[C@H]2[C@@H](c3ccccc31)[C@H](CO)N2C(=O)Nc1ccc(F)cc1	-2	1	2.2
CO[C@H](CN(C)S(=O)(=O)c1ccc(F)cc1)[C@@H](C)CN(C(=O)Nc1ccccc1F)[C@@H](C)CO	0	9	-2.0
CCOc1ccc(-c2noc(-c3csc([C@@H]4O[C@H](CO)[C@H](O)[C@H](O)[C@H]4O)n3)n2)cc1	7	21	-0.2
CC(C)NC(=O)N1[C@H](CN(C)C(=O)c2ccncc2)[C@@H](c2ccccc2)[C@@H]1CO	4	4	0.9
C[C@@H]1CN([C@H](C)CO)C(=O)c2cc(C#Cc3cccnc3)cnc2O[C@H]1CN(C)Cc1ccc(F)cc1	2	3	0.7
O=C(C[C@H]1C=C[C@H](NC(=O)c2ccccc2)[C@H](CO)O1)NCc1ccncn1	5	6	-1.9
O=C(Nc1ccc(F)cc1)N[C@@H]1CC[C@@H](CC(=O)N2CCOCC2)O[C@H]1CO	1	2	0.4
CCC(=O)Nc1ccc2c(c1)C(=O)N(C)C[C@H](OC)[C@@H](C)CN(Cc1nccs1)[C@@H](C)CO2	0	-2	-2.4
NC(COCc1ccccc1)c1csc(NC(=O)Nc2cccc(C(F)(F)F)c2)n1 (stereo unspecified)	-35	-81	-21
C[C@@H]1CN([C@@H](C)CO)C(=O)c2cc(NC(=O)Nc3ccccc3)ccc2O[C@@H](C)CCCCO[C@H]1CN(C)S(=O)(=O)c1cn(C)cn1	0	3	-2.0
COc1ccc(NC(=O)N(C)C[C@H]2OCCCC[C@@H](C)Oc3ccc(NS(=O)(=O)c4ccccc4)cc3C(=O)N([C@H](C)CO)C[C@H]2C)cc1	-1	-1	-2.5
CCC(=O)N1CC2(CCN(Cc3nccs3)CC2)c2c(n(C)c3cc(OC)ccc23)[C@H]1CO	-4	-2	-2.1
COc1ccccc1CNc1nc(-c2ccccc2CO)c2sccc2n1	-24	-29	-2.6
CO[C@@H]1CN(C)C(=O)c2ccc(NC(=O)C3CCOCC3)cc2OC[C@H](C)N(C(C)=O)C[C@@H]1C	1	-3	1.3
CCCC#Cc1ccc([C@@H]2[C@@H](C#N)N(C(=O)C3CCCC3)[C@@H]2CO)cc1	0	4	0.4
CCCNC(=O)N[C@@H]1CC[C@H](CCn2cc(C3CC3)nn2)O[C@@H]1CO	-2	0	-2.2
CO[C@H]1CN(C)C(=O)c2ccc(NC(=O)NC(C)C)cc2OC[C@@H](C)N(Cc2ccccc2)C[C@H]1C	0	5	1.1
CCC(=O)Nc1ccc2c(c1)C(=O)N(C)C[C@H](OC)[C@H](C)CN(C(=O)Cc1ccccn1)[C@H](C)CO2	3	6	-1.4
CCCNC(=O)N1[C@@H](CO)[C@@H](c2ccccc2)[C@@H]1CNC(=O)c1ccccc1	-10	-4	-5.3
CC=Cc1ccc2n(c1=O)C[C@H]1[C@H](CO)[C@@H](C(=O)NCC3CC3)[C@@H]2N1C(=O)C1CC1 (mixture of isomers)	4	8	1.1
Cc1noc(C)c1S(=O)(=O)N(C)C[C@H]1Oc2ccc(NC(=O)CCCN(C)C)cc2C(=O)N([C@H](C)CO)C[C@H]1C	-1	6	-2.2
CCCC#Cc1ccc2c(c1)O[C@H](CN(C)Cc1ccncc1)[C@H](C)CN([C@H](C)CO)S2(=O)=O	-34	-51	4.9
CNC[C@H]1Oc2ccc(NC(=O)Cn3cnnn3)cc2C(=O)N([C@H](C)CO)C[C@@H]1C	2	3	-1.4
